Source: PubChem BioAssay
HSD17B inhib = HSD17B dehydrogenase inhibition. Potency, µM (doses to about 57.1 µM), inactives show at the highest dose activity change, negative = inhibition, actives largely listed as inhibitors. recombinant HSD17B10, NADH fluorescence kinetic; many of its hits are not listed in these tables. Q99714. hit rate 7.6% among 75,000; active = well fitted inhibition curve with a large enough effect; inconclusive = small, poorly fitted or top-dose-only effect; inactive = no such curve, though single readings can be large or run the other way;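 note: the protocol describes HADH2 (HSD17B10) and not the HSD17B4 of the title; nearly all actives have a fitted effect of over 70% in size; most hits overshoot -100% by far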
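20 nM HADH2, pH 9.0 Tris/Tween; cpd preinc 15 min RT; start w/ 1 mM NAD+ + 90 uM b-hydroxybutyryl-CoA; kinetic fluor ex360/em450 q30s x 4 min; delta last-first.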
The depositor's hits bear a star; ? = inconclusive; [ ] = dose if it differs, or a comment. % is set by controls: 0 for no effect and ±100 for the full control effect; potency is the fitted concentration of half-maximal effect. Only part of the results is shown; the hit share may differ from the screen's.

| Molecule | HSD17B inhib |
| --- | --- |
| O=P(CCC(F)(F)F)(CCC(F)(F)F)CCC(F)(F)F | 10% |
| COCCNC(=O)C1(CC(C)C)C=CCN1C(=O)c1ccccc1 (stereo not drawn) | 1% |
| Cn1nnnc1SCC(=O)Nc1c(Cl)cccc1Cl | 3% |
| CCC(CC)C(=O)N(c1ccc(F)cc1)C1C=CS(=O)(=O)C1 (stereo not drawn) | -4% |
| O=C(c1ccc(Br)s1)N1CCN(Cc2ccc3c(c2)OCO3)CC1 | 10% |
| COc1ccc(Cl)cc1S(=O)(=O)n1ccnc1C(C)C | 3% |
| Cn1c(=O)c2cc(S(=O)(=O)Nc3ccc4c(c3)OCO4)ccc2n(C)c1=O | -12% |
| CCc1cccc2c(C#N)cn(CC(=O)NCc3ccco3)c12 | 8% |
| CCCCNC(=O)CC1N=C2c3ccccc3N=C(SCC(=O)Nc3ccccc3OC)N2C1=O (stereo not drawn) | -15% |
| C/C(Cl)=C/Cn1c(SCC(C)C)nc2c1c(=O)[nH]c(=O)n2C | 0% |
| COCCCNC(=O)CN(c1ccc(OC)cc1)S(=O)(=O)c1ccc(NC(C)=O)cc1 | -18% |
| Cn1cc(C2=C(c3ccc(Cl)cc3Cl)C(=O)NC2=O)c2ccccc21 | 20% |
| Cc1nc2cnc(N3CCNCC3)nc2n(Cc2ccc(F)cc2)c1=O | 25µM* |
| Cc1ccc(C(c2nnnn2CC2CCCO2)N2CCN(C(=O)c3ccco3)CC2)cc1 (stereo not drawn) | -4% |
| NC(=S)NCCC[C@@H](N)C(=O)O | -10% |
| CC1CC[C@@]2(OC1)OC1CC3C4CC=C5CC(O)CC[C@@]5(C)C4CC[C@]3(C)C1C2C (stereo partly drawn) | 13% |
| Cn1cccc1CNC(=O)Nc1ccc(Cl)cc1 | -1% |
| Brc1[nH]nc2ccccc12 | -10% |
| CCc1c(C(=O)NCc2ccccc2Cl)[nH]c(C)c1C(C)=O | 10% |
| COc1ccc(C(=O)CSc2nnc(COc3ccc(C#N)cc3)n2-c2ccccc2)cc1 | -12% |
| O=C(NCc1ccc(N2CCCC2=O)cc1)c1cnccn1 | 10% |
| Cc1cccc(N2CCN(C(=O)c3cc4c(=O)n(C)c5ccccc5c4n3C)CC2)c1C | -11% |
| CCn1c(-c2cccc(Cl)c2)n[nH]c1=S | -14% |
| CC(=O)Oc1ccc2c(c1)c(C(C)=O)c(C)n2C | -4% |
| COc1ccc(-c2c3c(=O)n(C)c(=O)n(C)c3cn2Cc2ccccn2)cc1 | 1% |
| CCC(=O)Nc1ccc2oc(-c3ccccc3Br)nc2c1 | ? |
| CC1CCCCN1Cc1nc2c(c(=O)n(C)c(=O)n2C)n1Cc1c(F)cccc1Cl (stereo not drawn) | -12% |
| CC(=O)c1c(C(C)=O)c(C)n(-c2ccc(C(=O)O)cc2)c1C | 15% |
| COc1cccc(-c2cc(C(=O)N/N=C/c3ccccc3O)[nH]n2)c1 | 1% |
| O[C@@H]1[C@@H](OCc2ccccc2)OC[C@H](O)[C@@H]1O | 3%[11.4 µM] |

No new results follow: entries from further up.
| Molecule | HSD17B inhib |
| --- | --- |
| O=P(CCC(F)(F)F)(CCC(F)(F)F)CCC(F)(F)F | 10% |
| COCCNC(=O)C1(CC(C)C)C=CCN1C(=O)c1ccccc1 (stereo not drawn) | 1% |

Further results follow.
| Molecule | HSD17B inhib |
| --- | --- |
| COC(=O)[C@@]1(Cc2ccc(OC)cc2)[C@@H]2C(=CC(=O)[C@H]2CC(=O)C(=O)N(C)C)CN1C(=O)c1ccccc1 | 4% |
| CCn1c(SCCC(=O)O)nnc1-c1cccnc1 | 10% |
| Cc1ccc(-c2c(C)c(-c3ccc(F)cc3)nc(N)c2C#N)o1 | -2% |
| COCCNC(=O)C1CCCN(c2nn3c(=O)cc(C)nc3s2)C1 (stereo not drawn) | 7% |
| O=C(CN1CCN(C(c2ccccc2)c2ccccc2)CC1)NC(=O)NCc1ccco1 | -1% |
| CC(=O)SC(C)CC(=O)Nc1ccccc1 (stereo not drawn) | 3% |
| COc1ccc(-c2nnc(SCC(=O)N3CCN(c4ccccc4)CC3)o2)cc1OC | 4% |
| CCOC(=O)C1CCN(C(=O)C2CCN(S(=O)(=O)CC)CC2)CC1 | -4% |
| COc1ccc(CN2CCNC(=O)C2CC(=O)O)c(OC)c1 (stereo not drawn) | 9% |
| O=C(CN1CCN(c2ccccn2)CC1)NCCc1ccccc1 | 5% |
| CC(C)COC(=O)n1c(=O)oc2cc(S(=O)(=O)N3CCCCC3)ccc21 | -21% |
| CCc1nnc(NC(=O)CSc2nnc(CSc3nc(C)cc(C)n3)o2)s1 | -10% |
| O=C(Cc1cccs1)Nc1ccccc1NC(=O)Cc1cccs1 | 7% |
| Cc1cccc(N2CCN(C(=O)C3CCN(S(=O)(=O)c4cccc5nsnc45)CC3)CC2C)c1 (stereo not drawn) | -12% |
| CCCOC(=O)C1=C(C)NC2=C(C(=O)CC(C)(C)C2)C1c1ccc(N(C)C)cc1 (stereo not drawn) | -5% |
| Cc1cc2oc3c(c(=O)c2cc1C)C(c1ccc(F)cc1)N(CCCN1CCOCC1)C3=O (stereo not drawn) | -16% |
| O=C(O)CC1CCS(=O)(=O)C1 (stereo not drawn) | 17% |
| Nc1nc2n(n1)C(c1cccc(Br)c1)CC(c1ccc(F)cc1)N2 (stereo not drawn) | 0% |
| CCOC(=O)N(C)OC(=O)Nc1ccc(Cl)c(Cl)c1 | -9% |
| Cc1ccc(-c2nc3ccccc3c(=O)n2CCN2CCOCC2)cc1 | 8% |
| Cc1nc(NCc2ccccc2)c2nc(-c3ccccc3)n(CCCN(C)C)c2n1 | 25µM* |
| CN1CCCCc2c1nc1ccccc1c2N (tested in a mixture with another compound) | -1% |
| COCC(=O)N1CCC2(CC1)CCN(C(=O)NC(C)C)CC2 | 11% |
| CCCNC(=O)c1nc2ncc(Br)cn2n1 | 13% |
| O=C(O)c1ccccc1OCCOc1ccccc1C(=O)O | 13% |
| Cn1c(=O)c2c(nc(N3CCNCC3)n2Cc2cccc3ccccc23)n(C)c1=O | 2% |
| O=C(c1ccc(N2C(=O)CCC2=O)cc1)N1CCN(c2ccccc2)CC1 | 18% |
| COc1ccc(NC(=O)CCN2CCN(S(=O)(=O)c3cc(Cl)ccc3OC)CC2)cc1 | 2% |
| O=C(O)CCN1Cc2ccccc2C1=O | -14% |
| C=CCOc1ccccc1/C=c1\sc2nc(-c3oc4ccccc4c3C)nn2c1=O | -14% |

Four entries drawn at random from those above, as already listed:
| Molecule | HSD17B inhib |
| --- | --- |
| COCCNC(=O)C1CCCN(c2nn3c(=O)cc(C)nc3s2)C1 (stereo not drawn) | 7% |
| CCOC(=O)C1CCN(C(=O)C2CCN(S(=O)(=O)CC)CC2)CC1 | -4% |
| Cc1cccc(N2CCN(C(=O)C3CCN(S(=O)(=O)c4cccc5nsnc45)CC3)CC2C)c1 (stereo not drawn) | -12% |
| C=CCOc1ccccc1/C=c1\sc2nc(-c3oc4ccccc4c3C)nn2c1=O | -14% |

Of the compounds above, 7 contain a COOH group.
| Molecule | HSD17B inhib |
| --- | --- |
| NC(=S)NCCC[C@@H](N)C(=O)O | -10% |
| CC(=O)c1c(C(C)=O)c(C)n(-c2ccc(C(=O)O)cc2)c1C | 15% |
| CCn1c(SCCC(=O)O)nnc1-c1cccnc1 | 10% |
| COc1ccc(CN2CCNC(=O)C2CC(=O)O)c(OC)c1 (stereo not drawn) | 9% |
| O=C(O)CC1CCS(=O)(=O)C1 (stereo not drawn) | 17% |
| O=C(O)c1ccccc1OCCOc1ccccc1C(=O)O | 13% |
| O=C(O)CCN1Cc2ccccc2C1=O | -14% |

Later entries
smiles,HSD17B inhib
Cc1cc(C)c2c(n1)nn1c(C)c(CCC(=O)NCc3ccco3)c(C)nc21,32µM*
Cc1ccc(C)c(N2CCN(C(=O)c3ccc(Cn4c(=O)[nH]c5ccccc5c4=O)cc3)CC2)c1,-24%
CCCCCCCCCCCCC(C(=O)O)C(C)C(=O)O (stereo not drawn),-9%
Nc1cccc2cnccc12,0%
Cc1ccc(C)c(N2C(=O)CC(N3CCN(Cc4ccc5c(c4)OCO5)CC3)C2=O)c1 (stereo not drawn),-1%
Cc1cc(=O)c2n(Cc3ccc(Cl)cc3)nc[n+]2[nH]1,1%
COc1ccc(OC)c(N(CC(=O)NCCSc2ccccc2)S(C)(=O)=O)c1,5%
CN(C)c1ccc(CNC23CN4CN(CN(C4)C2)C3)cc1,-6%
CNC(=O)C1CC(=O)N(Cc2ccc3c(c2)OCO3)C(=Nc2ccc(OC)cc2)S1 (stereo not drawn),4%
O=C(NCc1cccs1)c1cccc(N2CCCC2=O)c1,2%
c1ccc(N2CCN(Cc3ccnc4ccccc34)CC2)cc1,-19%
O=S(=O)(Nc1cccc2ncccc12)c1cccs1,8%
O=c1c2cnn(-c3ccccc3)c2ncn1/N=C/c1ccncc1,2%
O=C(Nc1ccc(N2CCCC2)c(Cl)c1)c1ccc(Br)o1,-10%
Cc1cc(C)nc(Nc2n[nH]c(COc3ccccc3)n2)n1,0%

Next section:
smiles,HSD17B inhib
O=C(Nc1cnc2ccccc2c1)c1cccnc1,5%
C=C(C)CSc1nc2ncccc2[nH]1,0%
Cn1c(CN2CCCC2)nc2cc(NS(=O)(=O)c3ccccc3)ccc21,0%
COc1ccc(C(N)=O)cc1NC(=O)c1cccc(F)c1,27%
CSc1cccc(NS(=O)(=O)c2cccc3nsnc23)c1,-6%
COC(=O)c1c(C)oc2ccc(NS(=O)(=O)c3cccs3)cc12,-4%
[O-][n+]1onc2c1CCC1N(O)C(c3ccccc3)CC21O (stereo not drawn),5%
CC(C)c1[nH]nc2c1C(C(C)C)C(C#N)=C(N)O2 (stereo not drawn),0%
N#Cc1cccc(NC(=O)N2CCC3(CC2)CCN(C(=O)c2csnn2)CC3)c1,-1%
O=C(c1n[nH]c(=O)c2ccccc12)N1CCN(c2ccccc2Cl)CC1,1%
O=C(NCC1CCCO1)C1CCN(CC2CCCCC2)CC1 (stereo not drawn),-20%
CNC1=C(Br)C(=O)c2ccncc2C1=O,-15%
Cc1cc(C)cc(N(CC(=O)NCC2CCCO2)C(=O)CCC(=O)Nc2cc(C)on2)c1 (stereo not drawn),7%
CCOC(=O)N1CCN(c2ccc3nnnn3n2)CC1,-7%
CCOc1ccc(CC2S/C(=N/c3ccccn3)NC2=O)cc1 (stereo not drawn),9%

(listing goes on)
smiles,HSD17B inhib
O=C(CCCn1c(SCC(=O)NC2CCCCC2)nc2ccccc2c1=O)NCC1CCCO1 (stereo not drawn),16%
COc1ccc(-c2nnn(CC(=O)N(C3CCCC3)C(C)C(=O)NC3CCCC3)n2)cc1OC (stereo not drawn),-2%
Cc1cc(C(=O)CSC(C)c2nc3ccccc3c(=O)[nH]2)c(C)n1C (stereo not drawn),-6%
CCC(Sc1nc2n[nH]c(C)c2c(=N)n1-c1cccc(Cl)c1)C(=O)NCCOC (stereo not drawn),-18%
COC(=O)COc1ccc(S(=O)(=O)NCCC2=CCCCC2)cc1,3%
O=C(Nc1ccc(S(=O)(=O)N2CCCC2)cc1)c1ccc(CN2CCOCC2)cc1,-2%
CCOC(=O)c1cc2c(ccn2C)n1CC(=O)N1CCN(c2ccccc2OC)CC1,?
COc1cccc(C2CC(c3ccccc3OC)n3ncnc3N2)c1 (stereo not drawn),9%
CCCn1cnc2c(c1=O)c1nc3ccccc3nc1n2Cc1ccccc1OC,3%
CC1(C)C(=O)C2(CCCC2)C(=O)OC1c1ccco1 (stereo not drawn),10%
CCOC(=O)N1CCC(NC(=O)CCc2cn(C)c3ccccc23)CC1,?
Cc1o[nH]c(=O)c1CC[C@H](N)C(=O)O,-1%
COc1ccc(OC)c(C2/C(=C(\O)c3c(C)nc4ccccn34)C(=O)C(=O)N2CCCN(C)C)c1 (stereo not drawn),12%
COc1ccc(CCNC(=O)c2cc(-c3ccccc3)on2)cc1OC,0%
CCCc1cc(=O)[nH]c(Nc2ccc(N3CCCCC3)cc2)n1,-7%

Next section
smiles,HSD17B inhib
COc1ccc(-c2nnc(SCc3ccccc3)n2N)cc1,-13%
Cc1ccc(S(=O)(=O)Cn2nnnc2C(c2ccc(F)cc2)N2CCC(C(N)=O)CC2)cc1 (stereo not drawn),3%
CC1(C)Cc2noc(N)c2C(C)(C)N1OC(=O)c1ccccc1,1%
CCN(CC)C(=O)c1sc(NC(=O)c2ccoc2C)c(C(=O)OC)c1C,-25%
COc1ccc(C(c2sc3nc(C)nn3c2O)N2CCCCC2)cc1 (stereo not drawn),11%
CCc1ccc(CCC(=O)Nc2nnc(CC)s2)o1,3%
N[C@H](C(=O)O)[C@H](O)C(=O)O,3%
CC(C)N(C)C1CCN(C(=O)Nc2ccc(Cl)c(Cl)c2)CC1,-3%
COC(=O)c1sc(S(=O)(=O)Nc2ccc3cn[nH]c3c2)c(C(=O)OC)c1C,-9%
COc1ccc(C)cc1NC(=O)CN1CCN(S(=O)(=O)c2ccc(F)cc2)CC1,4%
O=C(CCCN1C(=O)CCC1=O)Nc1cccc(C(F)(F)F)c1,3%
COc1ccccc1NC(=O)N1CCCC1C(=O)Nc1nnc(C(C)C)s1 (stereo not drawn),5%
O=C(NCCO)c1ccc(-c2nnc(N3CCOCC3)c3ccccc23)cc1,-3%
CC(C)(C)NC(=O)NC(=O)Cn1cc(C(F)(F)F)ccc1=O,-1%
O=C(c1ccco1)N1CCC2(CCCN(C(c3ccccc3)c3ccccc3)C2)CC1,-1%

(next part)
smiles,HSD17B inhib
O=C(c1cnccn1)N1CCC2(CCCN(C(c3ccccc3)c3ccccc3)C2)CC1,-10%
CCC(Sc1nc2ccccc2c(=O)n1CC1CCCO1)C(=O)NCc1cccnc1 (stereo not drawn),15%
Cc1ccc(C2=NCCNC2=O)c(C)c1,6%
COc1cccc(NC(=O)CN2C(=O)C3(OCCCO3)c3ccccc32)c1,7%
COc1cc(NC(=O)C(F)(F)F)cc(OC)c1,-5%
